Screens as filed in PubChem.
Epigenetic derep: epigenetic control regulation, reporter derepression; Potency, µM (highest dose often 53.9 µM), for the others: at the top dose GFP activation, hits mostly activators; murine LDR cells, GFP reporter derepression, 30 h; 280,000 compounds, 0.2% hits; also: % of control where 0% means no effect; nearly all actives have a fitted effect of over 60% in size
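Murine LDR cells bearing a silenced CMV-driven GFP reporter were exposed to compound for 30 h at 37 C. After PBS washes, GFP-positive cells (20-120 um objects) counted by laser-scanning microplate cytometry.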
aGlu spleen mod: inhibitors or activators of human alpha-glucosidase in spleen homogenate | 240,000 compounds, 0.006% hits | human spleen homogenate, 4-MU-alpha-glucoside fluorescence | Potency, µM (titrated, usually from 79.9 µM), inactives show at the highest dose activity change, negative = inhibition, most hits filed as inhibitors;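 also: 0% = enzyme with vehicle and -100% = no enzyme basal signal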
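Enzyme source: human spleen homogenate, 1 ug/well. Buffer 50 mM citric acid/K phosphate pH 5.0, 0.01% Tween-20. 4-MU-alpha-glucoside 1 mM; 37 C x 40 min; NaOH/glycine stop; fluorescence.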
GAA glycogen: alters human alpha-glucosidase cleavage of glycogen; recombinant GAA, glycogen substrate, Amplex Red glucose oxidase fluorescence; 300,000 compounds, 0.38% hits; AID 2100; P10253; Potency, µM (doses to about 76.4 µM), for the others: top-dose activity change, negative = inhibition, hits mostly inhibitors;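 also: 0% = full enzyme reaction and -100% = no-enzyme basal signal; the screen sought inhibitors and activators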
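qHTS, 1536-well; enzyme 4 nM final; cpd up to 77 uM; substrate bovine liver glycogen 30 ug; 50 mM citrate/phosphate pH 5.0, 0.01% Tween-20; 37 C, 40 min; Amplex Red detection 45 min RT; Hill fit → AC50.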
GLA spleen mod: alpha-galactosidase A (human) modulation; P06280; human spleen homogenate, 4MU-alpha-Gal fluorescence, 40 min; Potency, µM (highest dose often 80 µM), for the others: top-dose activity change, negative = inhibition, most hits filed as inhibitors; 240,000 compounds, 0.008% hits; AID 2107;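 also: 0% = enzyme with vehicle and -100% = no enzyme basal signal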
Target sequence (P06280 32-429 limits assumed): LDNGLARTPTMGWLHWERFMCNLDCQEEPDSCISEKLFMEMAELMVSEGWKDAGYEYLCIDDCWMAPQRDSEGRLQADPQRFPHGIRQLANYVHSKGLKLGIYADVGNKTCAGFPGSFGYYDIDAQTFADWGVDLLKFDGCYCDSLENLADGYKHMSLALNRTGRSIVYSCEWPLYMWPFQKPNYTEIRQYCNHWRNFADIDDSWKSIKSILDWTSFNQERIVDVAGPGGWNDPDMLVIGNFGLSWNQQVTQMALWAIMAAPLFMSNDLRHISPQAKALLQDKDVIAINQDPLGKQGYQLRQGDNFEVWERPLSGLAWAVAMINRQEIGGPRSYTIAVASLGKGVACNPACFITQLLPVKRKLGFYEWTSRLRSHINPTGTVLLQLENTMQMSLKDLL
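Fluorogenic readout (Ex 365/Em 440 nm) of 4-methylumbelliferone released from 1 mM 4-MU-alpha-galactoside by spleen homogenate, 40 min at 37C, pH 5.0. Data normalized to no-enzyme and enzyme controls; Hill-equation AC50 from compound titrations.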
GAA inh: alpha-glucosidase (human) inhibition; P10253; purified human GAA, 4-MU-alpha-glucoside fluorescence; Potency, µM (doses to about 76.9 µM), inactives show top-dose activity change, negative = inhibition, actives largely listed as inhibitors; 200,000 compounds, 0.005% hits; AID 1466;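 also: plate controls were uninhibited enzyme wells for no effect and no-enzyme background for full effect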
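Human enzyme at 4 nM with 400 uM 4-methylumbelliferyl-alpha-D-pyranoside, citrate/phosphate buffer pH 5.0, 0.005% Tween-20, 20 min at room temperature. Compounds up to 77 uM. 4-MU fluorescence (Ex 365/Em 440) read after NaOH/glycine stop; AC50 from Hill fit.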
An asterisk follows results filed as active; u = inconclusive; x = no result given; & = joins results of further samples; [ ] = remark or other dose. Calls follow the shape of the dose curve; as a rule, active = well fitted curve in the direction sought with a large enough effect; inconclusive = small, poorly fitted or top-dose-only effect, or another doubt; inactive = no such curve, though single readings can be large; an effect the other way counts as inactive or inconclusive. Potency is read from the fitted curve at half-maximal effect.

1	CCOC(=O)Nc1sc2c(c1C(N)=O)CCC(C)C2 (centres undefined)
2	CC(=O)OCC(=O)[C@]1(O)C(C)CC2C3CCC4=CC(=O)C=C[C@@]4(C)[C@]3(F)C(O)C[C@@]21C (some centres undefined)
3	OC(CCN1CCCC1)(c1ccccc1)C1CCCCC1 (centres undefined)
4	N=C(N)c1ccc(OCCCCCOc2ccc(C(=N)N)cc2)cc1 (tested in a mixture with another compound)
5	CS(=O)(=O)Nc1ccc([N+](=O)[O-])cc1Oc1ccccc1
6	O=C1Nc2ccc(Cl)cc2C(C#CC2CC2)(C(F)(F)F)O1 (centres undefined)
7	COCCn1c(=NC(=O)CSC(C)=O)sc2cc(OC)ccc21
8	O=C(CCCN1CCC(O)(c2ccc(Cl)cc2)CC1)c1ccc(F)cc1
Compound | 1 | 2 | 3 | 4 | 5 | 6 | 7 | 8
Epigenetic derep | 1.1% | -1.3% | 0.2%&2.7% | 1.1% | -1.1% | -1.4% | 0.9% | -1.2%
aGlu spleen mod | -1% | -15% | 4%&-5% | 7% | -14% | -2% | -11% | 3%
GAA glycogen | 12% | x | 3% | x | 1% | -13%[76.3 µM] | -1% | -2%&5%
GLA spleen mod | -6% | -4% | 9%&6% | 15% | u | -3% | 20% | -11%
GAA inh | -4% | x | -2%[15.4 µM] | x | -9%[15.4 µM] | x | 5% | 4%&0%[15.4 µM]

9	COc1cc(Cc2cnc(N)nc2N)cc(OC)c1OC
10	COC(=O)[C@H]1[C@@H]2C[C@@H]3c4[nH]c5ccccc5c4CCN3C[C@H]2CC[C@H]1O
11	CC(=O)O[C@]1(C(C)=O)CC[C@@H]2[C@@H]3C=C(C)C4=CC(=O)CC[C@@]4(C)[C@H]3CC[C@]21C
12	CCCc1cc(=O)[nH]c(=S)[nH]1
13	CC(C)OC(=O)c1ccc(N)cc1
14	Cn1c(=O)c2c(nc(NCCCN3CCOCC3)n2Cc2ccc(Cl)cc2Cl)n(C)c1=O
15	O=S1(=O)N=C(Nc2nc3c(s2)CCCC3)c2ccccc21
16	CC(C(=O)O)c1cccc(C(=O)c2ccccc2)c1 (centres undefined)
Compound | 9 | 10 | 11 | 12 | 13 | 14 | 15 | 16
Epigenetic derep | -1.7% | 1.9% | 1.4%[16.9 µM] | 0.7% | 3.0% | -0.4% | 0.2% | -1.1%&-1.2%&-2.4%&3.0%
aGlu spleen mod | -7% | 4% | 5%[29.1 µM] | -3% | 0% | 1% | -4% | -7%&9%&9%&-7%
GAA glycogen | 6%&3% | x | x | 0% | 9% | -14% | 3% | 1%&5%
GLA spleen mod | -13% | 8% | 5%[29.1 µM] | -3% | 0% | 2% | 3% | 2%&12%&2%&-1%
GAA inh | -1% | x | x | -5%[15.4 µM] | 9% | 3% | -3% | -14%[15.4 µM]

Grouped by structure, the entries above containing sulfur
1	CCOC(=O)Nc1sc2c(c1C(N)=O)CCC(C)C2 (centres undefined)
5	CS(=O)(=O)Nc1ccc([N+](=O)[O-])cc1Oc1ccccc1
7	COCCn1c(=NC(=O)CSC(C)=O)sc2cc(OC)ccc21
12	CCCc1cc(=O)[nH]c(=S)[nH]1
15	O=S1(=O)N=C(Nc2nc3c(s2)CCCC3)c2ccccc21
Compound | 1 | 5 | 7 | 12 | 15
Epigenetic derep | 1.1% | -1.1% | 0.9% | 0.7% | 0.2%
aGlu spleen mod | -1% | -14% | -11% | -3% | -4%
GAA glycogen | 12% | 1% | -1% | 0% | 3%
GLA spleen mod | -6% | u | 20% | -3% | 3%
GAA inh | -4% | -9%[15.4 µM] | 5% | -5%[15.4 µM] | -3%

Next section:
17	Cc1nc(=O)c(-c2ccccc2)c(C)n1-c1ccc(O)c(C(=O)O)c1
18	CC(C)(C)NCC(O)c1ccc(O)c(CO)c1 (centres undefined)
19	CNCC[C@H](Oc1ccc(C(F)(F)F)cc1)c1ccccc1
20	CN1CCN(C2=Nc3cc(Cl)ccc3Nc3ccccc32)CC1
21	C[C@]12CCC(=O)C=C1CCC1C2C(O)C[C@]2(C)C1CC[C@]2(O)C(=O)CO (some centres undefined)
22	CN1[C@H]2CC(OC(=O)[C@@H](CO)c3ccccc3)C[C@H]1[C@H]1O[C@H]12 (some centres undefined)
23	COc1nc(Nc2ccc([N+](=O)[O-])cc2)nc(NC2CCCCC2)n1
24	CC1(C)[C@H](C(=O)O)N2C(=O)C[C@H]2S1(=O)=O
25	c1csc(-c2nnc(COc3ccc4c(c3)OCO4)o2)c1
26	Cc1nc2nc(NCc3cccc(Br)c3)[nH]n2c(=O)c1Cc1ccccc1
27	COC(=O)C1C(O)CC[C@@H]2CN3CCc4c([nH]c5ccccc45)C3C[C@@H]12 (some centres undefined)
Compound | 17 | 18 | 19 | 20 | 21 | 22 | 23 | 24 | 25 | 26 | 27
Epigenetic derep | -2.6% | -0.1%&2.3%&0.8%&3.8%&0.0% | -1.2% | 0.2% | 0.0% | 2.4%[16.9 µM] | 0.1% | -1.8% | -3.8% | -1.9% | 0.2%&-1.3%
aGlu spleen mod | 1% | 11%&-4%&1%&-1%&-9% | -13% | -8% | 8% | 3%[29.1 µM] | -3% | 8% | 4% | x | 8%&-1%
GAA glycogen | -2% | x | x | 4% | x | x | 0% | x | 8% | 6%[76.3 µM] | x
GLA spleen mod | 1% | -12%&9%&-11%&10%&3% | -12% | 13% | 10% | 3%[29.1 µM] | -5% | 16% | -1% | x | 6%&14%
GAA inh | -7% | x | x | -5%[15.4 µM] | x | x | -9% | x | 5% | x | x

An excerpt, so the mix of outcomes need not match the whole.
